SARS PLP yeast: SARS-CoV PLP inhibition in yeast. 330,000 tested, 0.19% active. Potency, µM (highest dose often 32.9 µM), without a hit: at the highest dose activity, positive = growth rescue. AID 485353. S. cerevisiae expressing SARS-CoV PLpro, growth rescue; control for the full effect not named in the record; note: 0% is about no effect; nearly all actives have a fitted effect of over 55% in size; growth read by luminescence after 48 h
Cruzain inh Det: cruzain (T. cruzi) inhibition with detergent. purified cruzain, Z-FR-AMC fluorescence, 0.01% Triton. Potency, µM, for the others: max response, negative = inhibition, usual class: inhibitors. 200,000 tested, 0.43% active; active = well fitted curve in the direction sought with a large enough effect; inconclusive = small, poorly fitted or top-dose-only effect, or another doubt; inactive = no such curve, though single readings can be large; an effect the other way counts as inactive or inconclusive;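 note: plate controls were neutral wells for no effect and buffer without enzyme for full effect; nearly all actives have a fitted effect of over 40% in size; top concentration of the series not given in the record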
Target sequence (P25779 123-467 limits assumed): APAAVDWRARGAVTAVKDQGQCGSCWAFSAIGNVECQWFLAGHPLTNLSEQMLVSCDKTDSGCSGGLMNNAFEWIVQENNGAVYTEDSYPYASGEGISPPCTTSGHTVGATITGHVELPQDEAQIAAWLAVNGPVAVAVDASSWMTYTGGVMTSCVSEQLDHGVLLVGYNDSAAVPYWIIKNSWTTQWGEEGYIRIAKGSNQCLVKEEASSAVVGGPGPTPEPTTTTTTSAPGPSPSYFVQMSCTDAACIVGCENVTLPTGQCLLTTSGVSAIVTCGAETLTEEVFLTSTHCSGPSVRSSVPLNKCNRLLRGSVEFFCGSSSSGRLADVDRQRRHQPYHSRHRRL
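Detergent-containing arm of a paired screen for aggregation-based inhibition: 0.01% Triton X-100 present. Cruzain at 1.5 nM cleaved 2 uM Z-FR-AMC at pH 5.5 with 5 mM DTT; AMC fluorescence gain over 60 s measured activity.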
StopGo reporter: lowers the luciferase signal of an FMDV 2A StopGo reporter; human cells with a luciferase reporter of 2A StopGo recoding; control for the full effect not named in the record; Potency, µM (series often up to 57.9 µM), for inactives: at the highest dose signal change, negative = less light; 410,000 tested, 1.2% active; AID 1159524; active = well fitted falling curve with a large enough effect; inconclusive = small, poorly fitted or top-dose-only effect; inactive = no such curve, though single readings can be large or run the other way; tested in HEK293T cells; note: % is set by controls: 0 for no effect and ±100 for the full control effect; nearly all actives have a fitted effect of over 45% in size; luciferase light after 4 h
NS1 inh: blocks influenza NS1 protein function; S. cerevisiae slowed by influenza A NS1, growth recovery by OD600; Potency, µM (doses to about 46.1 µM), for inactives: top-dose activity, positive = more growth; 270,000 tested, 0.4% active; AID 2326; note: actives are rising curves; nearly all actives have a fitted effect of over 50% in size
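Recovery from NS1-induced slow growth read by OD600 in budding yeast switched to galactose assay medium (pH 6.0, -URA) at 1:100 dilution. Compound 23 nl per well; the matching strain lacking NS1 serves as control.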
Cruzain noTriton: inhibitors of Trypanosoma cruzi cruzain without detergent. P25779. purified cruzain, Z-FR-AMC fluorescence, no detergent. Potency, µM, for the others: max response, negative = inhibition, most hits filed as inhibitors. 200,000 tested, 2.3% active. AID 1476; active = well fitted curve in the direction sought with a large enough effect; inconclusive = small, poorly fitted or top-dose-only effect, or another doubt; inactive = no such curve, though single readings can be large; an effect the other way counts as inactive or inconclusive;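 note: plate controls were enzyme without inhibitor for no effect and buffer without enzyme for full effect; nearly all actives have a fitted effect of over 40% in size; top concentration of the series not given in the record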
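Purified cruzain at 1.5 nM, pre-incubated 15 min with compound at room temperature in 100 mM sodium acetate pH 5.5, 5 mM DTT, 0.00005% Triton X-100. Reaction started with 2 uM Z-FR-AMC; AMC fluorescence increase over 60 s gives rate.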
Marburg entry inh: Marburg virus entry inhibition; Marburg virus pseudotyped entry inhibition, cell reporter; control for the full effect not named in the record; about a third of the inactives were read at about 46 µM; Potency, µM (doses to about 37.8 µM), for inactives: top-dose activity change, negative = inhibition, actives largely listed as inhibitors; 300,000 tested, 1.8% active; AID 540276; active = well fitted inhibition curve with a large enough effect; inconclusive = small, poorly fitted or top-dose-only effect, or effect the other way; inactive = flat fitted curve, though single readings scatter; tested in HEK293 cells; about a fifth of its hits are not listed in these tables; note: % is set by controls: 0 for no effect and ±100 for the full control effect; luciferase read-out
Lassa entry inh: blocks Lassa virus binding to or entry into cells | Lassa virus pseudotype entry inhibition, cell reporter; control for the full effect not named in the record | Potency, µM (doses to about 37.9 µM), inactives show at the top dose activity change, negative = inhibition, usual class: inhibitors | 300,000 tested, 1.2% active | AID 540256; active means well fitted inhibition curve with a large enough effect; inconclusive means small, poorly fitted or top-dose-only effect, or effect the other way; inactive means flat fitted curve, though single readings scatter; tested in HEK293 cells; note: % is set by controls: 0 for no effect and ±100 for the full control effect; nearly all actives have a fitted effect of over 50% in size; luciferase read-out
RE007 growth inh: less growth of the S. pombe RE007 Vpr strain; S. pombe RE007 Vpr strain, BacTiter-Glo ATP luminescence, 24 h; control for the full effect not named in the record; Potency, µM (doses to about 92.2 µM), for inactives: at the top dose activity change, negative = less growth; 360,000 tested, 0.21% active; AID 651644; active = well fitted falling curve with a large enough effect; inconclusive = small, poorly fitted or top-dose-only effect; inactive = no such curve, though single readings can be large or run the other way;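 note: % is set by controls: 0 for no effect and ±100 for the full control effect; nearly all actives have a fitted effect of over 50% in size; the assay follows cell death caused by Vpr and the record does not say whether a fall means rescue or toxicity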
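Fission yeast strain RE007, carrying one chromosomally integrated HIV-1 vpr copy, was seeded at OD 0.01 in PMG+AL medium with 23 nL pinned compound. After 24 h at 30 °C and 99% humidity, viability was read by BacTiter-Glo luminescence.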
* marks the source's active call; other numbers are inactive results; ? = inconclusive; / = no result given; & = joins results of further samples; [ ] = dose if it differs, or a comment. Unless noted, calls come from the whole dose curve; as a rule, active means well fitted rising curve with a large enough effect; inconclusive means small, poorly fitted or top-dose-only effect; inactive means no such curve, though single readings can be large or run the other way. Potency is the fitted concentration of half-maximal effect. Not a hit list (roughly 4.7% active in at least one column).

SMILES | SARS PLP yeast | Cruzain inh Det | StopGo reporter | NS1 inh | Cruzain noTriton | Marburg entry inh | Lassa entry inh | RE007 growth inh
COC(=O)c1cccc(NC(=O)Cc2ccsc2)c1 | -4.8% | / | 15.9% | -1.4% | / | / | / | 15.7%
CN(C)CCNc1c2c(c(C#N)c3nc4ccccc4n13)CCCC2 | -11.2% | -2.6% | -3.0% | -11.4% | 5.0% | ? | 8.2% | 1.0%
CCc1ccc2oc(=O)cc(CN3CCN(CCO)CC3)c2c1 | -3.4% | -0.3% | -17.7% | -0.5% | -5.2% | 7.9% | 7.6% | 1.6%
Cn1c(=O)c2c(nc(N3CCCCC3)n2C)n(C)c1=O | 3.3% | -1.7% | -2.2% | 19.4% | -8.1% | -4.3%&-4.3% | -1.6% | 7.0%
CS(=O)(=O)c1ccc(N2CCN(C3CC(=O)NC3=O)CC2)cc1 (stereo unspecified) | 3.6% | 1.8% | -17.0% | 4.9% | -7.9% | -11.8% | -6.6% | 2.8%
NS(=O)(=O)c1ccc(CCNc2nc(C(F)(F)F)nc3ccccc23)cc1 | 0.9% | / | ? | -0.6% | / | ? | -9.4% | -4.3%
COc1ccc(-c2nc(-c3cccc(C(F)(F)F)c3)no2)cc1OC | -0.5% | -4.7% | 31.4%[activator] | -6.5% | ? | 25.0% | 2.4% | 8.8%
Cc1cccc(CSc2nc3ccncc3n2CC(=O)Nc2cc(C)cc(C)c2)c1 | -8.9% | -10.1% | -19.4% | 16.5% | 6.9% | 0.5% | ? | 22.1%
Cc1ccc(S(=O)(=O)N2CCN(S(=O)(=O)c3ccc(C)cc3)C2)cc1 | 2.5% | -4.7% | -2.4% | 6.1% | 6.5% | 0.1% | -0.5% | 9.9%
O=C(NCc1ccccc1)Nc1cccn(Cc2ccccc2Cl)c1=O | 0.4% | / | ? | -7.3% | / | / | / | 14.7%
Cc1cc(N2CCC(C)CC2)nc2ccc(NC(=O)CCC(=O)N3CCN(c4ccccc4F)CC3)cc12 | / | -13.2% | -7.8% | / | -7.2% | ? | ? | /
COc1ccc(CCN(C)C2CCCN(C(=O)c3ccnn3C)C2)cc1OC (stereo unspecified) | 0.1% | / | -21.0% | -2.3% | / | 14.4% | 4.8% | -19.2%
CC12CCC(C(=O)N(c3ccc(Cl)cc3)C1=O)C2(C)C (stereo unspecified) | -13.5% | -1.9% | -25.7% | -2.8% | -5.2% | -16.2% | 1.1% | 12.5%
CC(C)c1ccc(-c2nc3c([nH]2)c(=O)n(C)c(=O)n3C)cc1 | 2.1% | -0.8% | -12.3% | 15.4% | 3.3% | ? | 3.9% | -2.2%
O=C(COc1ccc(NS(=O)(=O)c2ccc(F)cc2)cc1)N1CCOCC1 | -0.8% | / | 27.8% | 2.2% | / | / | / | 1.7%
Cc1ccc(NC(=O)Cn2c(=O)ccc3cc(S(=O)(=O)N4CCCC4)ccc32)cc1N(C)C | / | 0.0% | -13.9% | / | ? | / | 0.1%[46.1 µM] | /
CC(=O)c1c(C)nc(Nc2nc(C)c3cc(C)ccc3n2)nc1C | 7.3% | / | 14.9% | / | / | ? | 22.8%[46.1 µM] | 1.0%
Nc1c(C(=O)NCc2cccs2)nnn1CC(=O)Nc1cccc(F)c1 | / | -1.4% | -14.4% | / | -12.4% | 5.0%[46.1 µM] | 1.5%[46.1 µM] | /
CCN(CCCNC(=O)C1CCN(C(=O)c2cc3sccc3n2C)CC1)Cc1ccccc1 | 2.8% | / | -11.6% | -5.1% | / | / | / | -8.2%
CC1=C(C(=O)OCc2ccccc2)C(c2ccc(N3CCOCC3)cc2)NC(=O)N1 (stereo unspecified) | 2.8% | 0.2% | 0.0% | -36.4% | -7.5% | 12.2% | -10.2% | 8.2%
ClCc1nnc(-c2ccccc2)o1 | -2.3% | -2.2% | ? | 3.7% | -3.1% | ? | 0.2% | 2.7%
COc1cc(CNCCSc2nnnn2C)ccc1OCc1ccccc1C | / | -0.2% | 11.9% | / | 1.9% | -19.7%[46.1 µM] | 3.0%[46.1 µM] | /
O=C(Nc1cccc(S(=O)(=O)N2CCCC2)c1)c1ccccc1OC(F)F | 1.7% | / | -16.4% | 0.6% | / | 0.2% | ? | 1.1%
O=C(NNC1CC(=O)N(c2ccc(Br)cc2)C1=O)c1ccco1 (stereo unspecified) | -7.5% | / | 0.1% | / | / | -13.7%[14.2 µM] | 17.8% | 4.7%
COc1ccc(NC(=O)CC(Cc2ccc(Cl)cc2)C(=O)O)cc1 (stereo unspecified) | 1.7% | / | -9.3% | 3.3% | / | / | / | -13.2%

No new results follow: an excerpt of the list.
SMILES | SARS PLP yeast | Cruzain inh Det | StopGo reporter | NS1 inh | Cruzain noTriton | Marburg entry inh | Lassa entry inh | RE007 growth inh
O=C(NCc1ccccc1)Nc1cccn(Cc2ccccc2Cl)c1=O | 0.4% | / | ? | -7.3% | / | / | / | 14.7%
Cc1cc(N2CCC(C)CC2)nc2ccc(NC(=O)CCC(=O)N3CCN(c4ccccc4F)CC3)cc12 | / | -13.2% | -7.8% | / | -7.2% | ? | ? | /

Other records
SMILES | SARS PLP yeast | Cruzain inh Det | StopGo reporter | NS1 inh | Cruzain noTriton | Marburg entry inh | Lassa entry inh | RE007 growth inh
C/C(=N\Nc1ccc([N+](=O)[O-])cc1)c1ccc(C#N)cc1 | -1.1% | / | -1.6% | -0.2% | / | ? | -18.6% | 17.4%
CCOc1ccc(NC(=S)NCCCN2CCN(c3ccc(OC)cc3)CC2)cc1 | -3.9% | / | -16.0% | / | / | 9.0%[46.1 µM] | ? | 0.7%
CCOc1ccccc1CNC(=O)CCCn1c(=O)c2cccn2c2cccnc21 | / | -0.4% | -8.9% | / | 5.7% | / | ? | /
COc1ccccc1N1CCN(C(=O)CSc2nnc3n2C(C)(C)Cc2ccccc2-3)CC1 | 0.7% | -3.1% | 15.8µM* | -5.3% | ? | ? | ? | 13.8%
CCN(CC)c1ccc(CN(C(=O)c2cc(OC)c(OC)c(OC)c2)C2CCS(=O)(=O)C2)cc1 (stereo unspecified) | -1.6% | 3.1% | -5.5% | -10.4% | -16.6% | -5.5%&-5.5% | -23.7% | -3.8%
COc1ccc(-c2cnc3ccccc3n2)cc1NC(=O)CNC(=O)c1ccccc1 | 2.2% | / | 65.5%[activator] | -2.9% | / | 2.1% | ? | -7.5%
CCOC(=O)c1cc(C(C)C)sc1NC(=O)COC(=O)CCS(=O)(=O)c1ccccc1 | 9.4% | -13.9% | -8.8% | 7.0% | ? | -7.5% | 11.5% | 16.1%
Cc1ccc(C)c(S(=O)(=O)NC(C)CCc2ccccc2)c1 (stereo unspecified) | -8.7% | / | 60.1%[activator] | -48.1% | / | ? | -6.5% | 12.6%
COC(=O)C1=C(C(C)=O)C(c2ccc(C(=O)OC)cc2)n2nnnc2N1 (stereo unspecified) | 5.4% | 6.6% | -20.9% | 2.0% | -4.5% | -12.7% | -12.9% | -16.5%
Cc1ccc(S(=O)(=O)N2CCC(C(=O)O)CC2)cc1 | 0.7% | / | -15.1% | -1.1% | / | 2.7%[46.1 µM] | 14.4%[46.1 µM] | 23.0%
Cc1c(C(=O)OCC(=O)Nc2ccc3c(c2)OCO3)cccc1[N+](=O)[O-] | -20.9% | -10.2% | 0.0% | -20.6% | ? | ? | 2.4% | /
CCN(CC)C(=O)CN(c1ccc2c(c1)OCO2)S(C)(=O)=O | -0.9% | 7.4% | / | 5.1% | -8.4% | 12.7% | 0.3% | -4.3%
Cc1ccc2c(c1)N(CC(=O)NC1CCCc3ccccc31)C(=O)CO2 (stereo unspecified) | 6.7% | 5.7% | -3.7% | 4.3% | -0.1% | -14.1% | -5.4% | -3.7%
CCCN(CCC)CC(=O)Nc1cccc2c1OCO2 | 2.6% | 3.8% | 0.0% | -2.6% | -15.3% | 3.8% | 16.6% | -13.5%
COc1ccc(C2CC(c3cccs3)=NN2S(C)(=O)=O)cc1OC (stereo unspecified) | 0.4% | / | 39.3%[activator] | 5.4% | / | 6.2%[46.1 µM] | 2.2% | -9.6%
CCOc1c2c(nc3ccc(Cl)cc13)CCC2 | 8.0% | -4.0% | -15.8% | -11.9% | 7.7% | 3.1% | 13.2% | -17.4%
CCOc1ccc(OCC)c(NS(=O)(=O)c2ccc3c(c2)n(C)c(=O)c(=O)n3C)c1 | -4.7% | 2.7% | 15.4% | -7.1% | -3.5% | 12.6%&12.6% | -14.1% | -2.2%
Cc1c(NC(=O)CSc2nnnn2-c2ccc(F)cc2)c(=O)n(-c2ccccc2)n1C | 0.1% | / | -3.5% | 4.7% | / | 2.2%[46.1 µM] | 16.4% | 6.9%
O=C(Nc1ccc(Cl)cn1)c1cc(S(=O)(=O)N2CCCCC2)ccc1Cl | 2.8% | 1.0% | -20.5% | -3.6% | 10.6% | -16.2% | 3.3% | 5.3%
CCOc1ccc(CCNC(=O)COC(=O)/C=C/c2ccccc2OC)cc1OCC | 2.7% | / | -0.6% | / | / | 2.6% | -3.1% | -8.0%
CCOC(=O)CNC(=O)c1c(C)nn(C)c1Cl | -2.0% | / | -0.8% | / | / | ? | -6.7%[46.1 µM] | -5.0%
Cc1csc2nc(O)c(C(=O)NC3CCCCC3)c(=O)n12 | 7.3% | / | -3.9% | / | / | ? | 7.2% | -17.4%
CCN(CC)c1nc(N)c([N+](=O)[O-])c(NCCO)n1 | 9.5% | -8.0% | -16.8% | -1.3% | -19.5% | -11.2% | 4.6% | -1.6%
COc1cnc(SCc2ccc(Cl)cc2Cl)nc1Cl | -13.3% | -0.3% | 4.1% | ? | -5.3% | -1.7% | ? | -3.4%
CNC(=S)N(CCc1ccc(OC)c(OC)c1)Cc1cc2c(C)cc(C)cc2[nH]c1=O | -5.8% | -6.7% | -29.8% | 10.5% | 22.7% | 0.5% | 0.0% | -3.1%
O=C1c2ccccc2C(=O)N1N(c1ccccc1)c1ccccc1 | / | / | -27.1% | / | / | ? | -3.2% | 55.4%
C=CCNC(=O)c1ccc(-c2cccc([N+](=O)[O-])c2)o1 | -2.9% | / | 48.8%[activator] | -6.2% | / | ? | -2.2% | -13.7%
